Assay outcomes: PubChem BioAssay, Broad Institute
STK33 inh = inhibitors of purified STK33 kinase, primary screen, biochemical, ADP-Glo luminescence, homogeneous, cell-free. MBP phosphorylation. inhibition, % at 10 µM. 0.073% of 320,000 active;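 active = inhibition at or above 25%, using the most active replicate where run in duplicate; inactive = inhibition below 25%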
Target sequence (Q9BYT3 whole entry, looked up): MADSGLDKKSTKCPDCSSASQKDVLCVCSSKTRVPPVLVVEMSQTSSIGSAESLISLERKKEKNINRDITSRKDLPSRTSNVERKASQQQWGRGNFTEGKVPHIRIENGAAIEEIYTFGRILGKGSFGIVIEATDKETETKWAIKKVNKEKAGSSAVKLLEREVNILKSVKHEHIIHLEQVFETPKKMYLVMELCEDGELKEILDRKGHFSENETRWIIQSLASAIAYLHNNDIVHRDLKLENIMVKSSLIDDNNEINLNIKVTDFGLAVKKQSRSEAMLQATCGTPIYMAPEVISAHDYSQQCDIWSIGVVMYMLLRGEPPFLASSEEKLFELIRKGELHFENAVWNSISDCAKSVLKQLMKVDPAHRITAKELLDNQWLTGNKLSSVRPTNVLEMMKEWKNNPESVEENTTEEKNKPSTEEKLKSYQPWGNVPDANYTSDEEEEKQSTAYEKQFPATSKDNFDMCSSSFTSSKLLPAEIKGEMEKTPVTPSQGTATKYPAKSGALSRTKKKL
* marks the source's active call; other numbers are inactive results. An excerpt, and most or all hits are left out here.

cpd	SMILES	STK33 inh
1	Cc1cccc(NC(=O)C2CC(=O)N(c3ccccc3)C2)c1C (configuration not stated)	-1.5
2	Cc1cc([N+](=O)[O-])nn1CC(=O)NCc1ccccc1	-1.0
3	CN(C)CCn1c(C(=O)Nc2ccccc2)cc2ccccc21	-0.5
4	COc1ccc(CNC(=O)Cn2nc(C(F)(F)F)c(Br)c2C)cc1	-1.5
5	COc1ccccc1NC(=O)N1CCCC1C(=O)Nc1ccc(NC(C)=O)cc1 (configuration not stated)	1.3
6	CN(C)CCCNC(=O)C(=O)NCC(c1cccs1)S(=O)(=O)c1ccc(F)cc1 (configuration not stated)	-1.2
7	CC(=O)Nc1ccc(OCC(=O)c2ccc(C)cc2C)cc1	-0.1
8	COc1cc2c(cc1OC)C(c1ccccc1)CC2=O (configuration not stated)	-1.8
9	C/C(=N/NC(=O)CNC(=O)/C=C/c1ccco1)c1ccc(Cl)cc1	0.2
10	Cc1ccc(NC(=O)c2oc3ccccc3c2NC(=O)C2CC2)cc1	-2.5
11	O=C(CCCSc1nc2ccccc2s1)Nc1nccs1	3.7
12	Cc1cnc(C(=O)OC(C)C(=O)Nc2ccc(Cl)cn2)cn1 (configuration not stated)	-2.8
13	CCOC(=O)C1CCN(C(=O)Nc2ccccc2Cl)CC1	-0.2
14	COc1cccc(/C=N/Nc2ncnc3scc(-c4ccccc4)c23)c1OC	-0.1
15	Cc1ccccc1SCC(=O)Nc1ccc(N2CCOCC2)cc1	-0.4
16	Cc1nc2ccc(NC(=O)NC(=O)c3c(Cl)cccc3Cl)cc2o1	-0.9
17	COc1ccc(Cl)cc1N/C(N)=N/c1nc(C)cc(C)n1	0.0
18	Cc1c[n+]([O-])cc(C)c1Oc1ccccc1	0.4
19	CCOC(=O)c1sc(NC(=O)CCN2C(=O)c3cccc([N+](=O)[O-])c3C2=O)c(C(=O)OCC)c1C	-0.8
20	CCOC(=O)C1CCN(C(=O)CNS(=O)(=O)c2cccs2)CC1	-0.8
21	COC/C=C/C1=CC2=CC(=O)C(C)(OC(=O)c3cnc4ccccc4n3)C(=O)C2=CN1CCOC (configuration not stated)	1.1
22	COc1ccc(C(=O)Nc2ccc(N3CCN(C(=O)c4cccs4)CC3)cc2)cc1Br	-0.7
23	CCCCN(C)CCN1C(=O)C2C(C(=O)Nc3ccc(OC)cc3)C3C=CC2(O3)C1C(=O)NC1CCCCC1 (configuration not stated)	0.6
24	O=C(c1ccc(Cn2cc(Br)cn2)o1)n1cccn1	-0.7
25	Cn1nc(C(F)(F)F)c(C#N)c1N1CCN(c2ccccc2F)CC1	1.9
26	O=C(COC(=O)CCS(=O)(=O)c1ccc(Cl)cc1)NC1CCCCC1	-0.9
27	Cc1ccc(OCCOCCNC(C)C)c(Br)c1	-0.8
28	CCc1cc(CNC(=O)c2cc(COc3ccc(C)nc3)on2)on1	-1.1
29	Cc1cccc(NC(=O)CSCC(=O)Nc2nnc(C3CC3)s2)c1	-1.1
30	O=C1N=c2ccc([N+](=O)[O-])cc2=C1c1sc(=O)[nH]c1O	20
31	COC(=O)c1ccc(/C=N/Nc2nc(C)c(C)s2)cc1	-2.0
32	O=C(Nc1ccccc1)/C(=C\c1ccc(F)cc1)NC(=O)c1ccco1	-1.1
33	COc1cccc(-c2cc(C(=O)N3CCN(c4ccccc4OC)CC3)no2)c1	-0.3
34	COc1ccc(/C=N/OCC(=O)N2CC3(C)CC2CC(C)(C)C3)cc1OC (configuration not stated)	1.3
35	COC(=O)/C(C#N)=C/c1c(-c2ccccc2)nc2n1CCS2	0.4
36	CCn1cc(C(=O)NCc2cccc(F)c2)c(=O)c2cc(F)c(N3CCN(C(=O)c4ccco4)CC3)cc21	-0.9
37	COc1ccc(CN2CC(=O)N(c3ccc(Cl)cc3)C2=S)cc1OC	0.0
38	COC(=O)Nc1ccc(NC(C)=O)cc1	-0.3
39	Cc1noc(C)c1N=Nc1ccc(Br)cc1C(=O)O	0.2
40	COCc1ccc(CN2CCC(n3nccc3NC(=O)CCCc3ccccc3)CC2)o1	-0.9
41	CCOC(=O)c1c(S(=O)(=O)N(C)C2CCCCC2)c(C)n(C)c1C	2.0
42	Cc1cccc(N(Cc2ccccc2)C(=O)c2ccccc2S(C)(=O)=O)c1	1.7
43	COCCn1c(C)cc(C(=O)COC(=O)/C=C/c2cccc(OC)c2)c1C	-0.6
44	Cc1nn(C)cc1CN(C)C(=O)c1cc2nc(-c3ccco3)cc(C(F)(F)F)n2n1	0.1
45	COc1cc(C2NC(=O)NC(C)=C2C(=O)OC(C)(C)C)ccc1OCC(N)=O (configuration not stated)	0.2
46	CCC(=O)Nc1cc(C(=O)NCC2CCCN2CC)c(OC)cc1N(C)C (configuration not stated)	0.5
47	C=CCN(C(=O)Cn1c(C(=O)OC)cc2oc(C)cc21)c1ccccc1	0.4
48	O=C(CNc1cccc2ccccc12)N/N=C/c1ccc(C(=O)O)cc1	-0.7
49	Cn1nnnc1SCC(=O)N1CCN(C(=O)c2ccco2)CC1	-0.9
50	CC(=O)c1nc(N2C(=O)CC(Cc3cc(C)cc(C)c3)C2=O)sc1C (configuration not stated)	0.5
51	CCCCC(=O)NNC(=O)c1c(O)c2ccccc2[nH]c1=O	-0.6
52	CCc1cc2ccccc2nc1Cl	0.7
53	O=C(O)c1ccccc1CSC1=NCCS1	-2.1
54	O=C(O)C1C2C=CC(C2)C1C(=O)Nc1nccs1 (configuration not stated)	0.3
55	O=C(Nc1ccc2c(c1)OCO2)C1CCN(Cc2cc3c(cc2O)OCO3)CC1	-0.5
56	COCCNC(=O)CC(c1ccccc1)c1ccccc1	-24
57	COc1ccc(OC)c(NC(=O)CSc2nnc(-c3cnccn3)n2C)c1	-0.3
58	COc1ccc(CN2CCN(Cc3c[nH]c4ccccc34)CC2CCO)cc1C (configuration not stated)	-2.7
59	O=C(NC1CC(=O)N(c2ccc3c(c2)OCCO3)C1)N1CCCCC1 (configuration not stated)	0.2
60	CN(C)S(=O)(=O)c1ccc(C(=O)OCC2CC2(Cl)Cl)cc1 (configuration not stated)	0.8

(next part)
cpd	SMILES	STK33 inh
61	Cc1cc(C)c2nc(N3CCC(C(=O)NCc4ccccn4)CC3)sc2c1	-0.9
62	CCN1C(=O)C(O)(CC(=O)c2cccc(-n3cccc3)c2)c2ccccc21 (configuration not stated)	-0.9
63	O=C(Nc1nnc(-c2ccccc2SCc2ccccc2)s1)Nc1ccccc1F	-2.2
64	Cc1ccc(CNC(=O)COc2ccc(C(=O)c3ccc(F)cc3)cc2)cc1	-1.8
65	CCC1CCCCN1C(=O)CSc1nc(C)cc(C)n1 (configuration not stated)	0.9
66	CC(C)[C@@H]1CC[C@@H](C)c2c(-c3ccccc3)n[nH]c21	0.8
67	Cc1nc(Nc2ccc(Cl)cc2Cl)sc1C(=O)Nc1ccccc1	-1.6
68	CCc1ccccc1NC(=O)CC(NCc1ccccc1)C(=O)O (configuration not stated)	-0.4
69	CN(C)/C=C/C(=O)c1cccc(Oc2ncccn2)c1	-0.1
70	Cc1ccc(COc2ccsc2C(=O)NNC(N)=S)cc1	-0.7
71	CN(C)CC1(c2ccccc2)CCCC1	-0.3
72	S=C(Nc1ccc(Cl)c(Cl)c1)NN1CCOCC1	-2.3
73	COCCn1c(COc2ccc(OC)cc2)nc2ccccc21	6.8
74	CCN(c1ccccc1)S(=O)(=O)c1ccc(Cl)c(NC(=O)CSc2nncs2)c1	-1.1
75	CCN(CC)c1ccc(S(=O)(=O)N2CCCCC2)cc1NC(=O)C1CCC1	0.8
76	CCN(CCO)c1ccc(NC(=S)Nc2cccc(S(=O)(=O)N(C)C)c2)cc1	-0.4
77	c1ccc(-c2csc3ncnc(NCCCN4CCOCC4)c23)cc1	-1.4
78	COc1cccc(NC(=O)COC(=O)Cc2ccccc2[N+](=O)[O-])c1	-3.1
79	Cc1csc(NC(=O)c2ccc(C)c([N+](=O)[O-])c2)n1	0.4
80	COC(=O)c1ccc2c(=O)n(CC3CCCO3)c(SCC(=O)Nc3ccccc3OC)nc2c1 (configuration not stated)	-0.7

Reprinted at random: six records from the list
cpd	SMILES	STK33 inh
43	COCCn1c(C)cc(C(=O)COC(=O)/C=C/c2cccc(OC)c2)c1C	-0.6
60	CN(C)S(=O)(=O)c1ccc(C(=O)OCC2CC2(Cl)Cl)cc1 (configuration not stated)	0.8
40	COCc1ccc(CN2CCC(n3nccc3NC(=O)CCCc3ccccc3)CC2)o1	-0.9
32	O=C(Nc1ccccc1)/C(=C\c1ccc(F)cc1)NC(=O)c1ccco1	-1.1
4	COc1ccc(CNC(=O)Cn2nc(C(F)(F)F)c(Br)c2C)cc1	-1.5
78	COc1cccc(NC(=O)COC(=O)Cc2ccccc2[N+](=O)[O-])c1	-3.1

(cont.)
cpd	SMILES	STK33 inh
81	COC(=O)c1ccccc1NC(=O)CN(C)S(=O)(=O)c1ccc(OC)c(C)c1	-0.3
82	CCCOc1ccc(/C=N/O)cc1	0.0
83	Cc1cc(C)cc(-n2ccn(CC(=O)NCCc3ccccc3)c(=O)c2=O)c1	-1.5
84	COC(=O)c1cc(CNC(=O)c2ccccc2Cl)ccc1OC	-0.4
85	CC1CCN(S(=O)(=O)c2cc([N+](=O)[O-])ccc2Cl)CC1	8.9
86	O=C(NC(=S)NCCC1=CCCCC1)c1cncc(Br)c1	2.3
87	CCOc1ccc(C(=O)Nc2c(C(=O)N3CCC(N4CCCCC4)CC3)oc3ccccc23)cc1	0.2
88	Cc1c(Cl)cccc1NC(=O)CSc1nnc(C)n1CC1CCCO1 (configuration not stated)	-0.5
89	COc1ccc([N+](=O)[O-])cc1N(CC(O)CN1CCOCC1)S(=O)(=O)c1ccccc1 (configuration not stated)	-1.9
90	Cc1nc2c(C)cccc2cc1C(=O)N/N=C/c1ccc(N(C)C)cc1	-2.1
91	CC1(C)NC(=O)N(CCSc2ccc(Cl)cc2)C1=O	-1.2
92	CN(CC(=O)Nc1cccc(F)c1)C(=O)c1cc2c(s1)CCCCC2	-1.6
93	Cc1ccc(C)c(Cn2c(C(C)O)nc3ccccc32)c1 (configuration not stated)	-0.2
94	CC(C)C[C@H](NC(=O)OC(C)(C)C)C(=O)N/N=C/c1ccc2nccnc2c1	3.1
95	COc1ccc(S(=O)(=O)N2CCOCC2)cc1NC(=O)CSc1nnc(N)s1	0.7
96	Cc1cccc[n+]1CC(=O)Nc1ccccc1	0.1
97	CC1CCN(CCCNC(=O)c2cc3c(s2)-c2ccccc2OC3)CC1	1.0
98	Cc1cc(NC(=O)CCC(=O)N(CC(=O)NC2CCCC2)c2ccc(F)c(Cl)c2)no1	0.1
99	CCOc1cc2[nH]c(=O)n(CCC(=O)N3CCN(c4ccccc4OC)CC3)c(=O)c2cc1OCC	-1.2
100	CCOC(=O)C1CCCN(Cc2cc(=O)oc3cc(C)c(C)cc23)C1 (configuration not stated)	0.4

Screen by screen, as entered above.
STK33 inh, nos. 19–29, in order: -0.8, -0.8, 1.1, -0.7, 0.6, -0.7, 1.9, -0.9, -0.8, -1.1, -1.1

Next part
cpd	SMILES	STK33 inh
101	O=C(COc1ccc2c(c1)CCC2)N1CCc2ccccc21	3.6
102	Cc1cc(C)c2nc(SC3CCOC3=O)cc(C)c2c1 (configuration not stated)	-0.1
103	C/C(=N/NC(=O)c1ccc(Cl)cc1Cl)c1cccnc1	-1.1
104	COc1ccc(C(CC(=O)O)NC(=O)c2cc3cc(Br)ccc3oc2=O)cc1OC (configuration not stated)	0.1
105	Cc1cc(C)n2nc(SCN3C(=O)c4ccccc4C3=O)nc2n1	-0.2
106	CCOC(=O)CSc1nc2cc(C)ccc2cc1C#N	-0.6
107	O=C(c1ccc(Cl)cc1)c1oc2ccccc2c1CS(=O)(=O)c1ccccc1	-0.3
108	N#CC1(NC(=O)COC(=O)CSc2ccc(F)cc2)CCCCC1	0.1
109	CCCC(=O)N(c1ccc2oc(C)c(C(C)=O)c2c1)S(=O)(=O)c1ccc(C(=O)O)cc1	-1.2
110	CCOC(=O)N1CCN(CCC(=O)Nc2cccc(C)c2)CC1	-4.0
111	N#Cc1nc(-c2ccco2)oc1NCc1ccc(F)cc1	0.6
112	Cc1[nH]n(-c2ncc(-c3ccc(Cl)cc3)s2)c(=O)c1C(c1ccc(Cl)cc1)C(C#N)C#N (configuration not stated)	-0.3
113	COn1c(-c2ccccc2)nc2ncccc21	-1.1
114	O=C(Cn1cnc2c(nnn2-c2ccccc2)c1=O)NCCc1ccccc1	0.5
115	COc1cccc(CCNC(=O)CC2C(=O)NCCN2CC(C)(C)C)c1 (configuration not stated)	-0.9
116	Cc1cc(C)nc(/N=C(\N)N(Cc2ccccc2)Cc2ccccc2)n1	-0.1
117	O=C(O)c1ccccc1NSc1ccccc1[N+](=O)[O-]	-1.0
118	O=C(Nc1nc(-c2ccccc2)ns1)c1cccs1	0.8
119	CCN1CCN(C(=O)c2cc3c(=O)n4ccccc4nc3s2)CC1	1.2
120	Nc1cccc(NC(=O)c2cccs2)c1	-1.4
121	CCN(CC(=O)NCc1ccc(F)cc1)C(=O)/C=C/c1ccc(OC)c(S(=O)(=O)NC(C)C)c1	-1.1
122	O=C(CN1C(=O)NC2(CCCC2)C1=O)N1CCN(S(=O)(=O)c2ccccc2Br)CC1	-1.0
123	CCOC(=O)C(NC(C)=O)(Nc1ccc(S(=O)(=O)Nc2cc(C)on2)cc1)C(F)(F)F (configuration not stated)	-1.8
124	Nc1nc(-c2nc3ccccc3[nH]2)cs1	1.9
125	O=[N+]([O-])c1ccc(CN2CCN(c3ccc4ccccc4n3)CC2)cc1	-0.9
126	CC(C)CNC(=O)COC(=O)c1cncc(Br)c1	0.2
127	Cc1cc(C)cc(OC(C)C(=O)Nc2ccc(S(=O)(=O)Nc3cc(C)nc(C)n3)cc2)c1 (configuration not stated)	-0.7
128	COc1cc(OC)c2c(C)cc(=O)oc2c1C(CCN1CCOCC1)c1ccc2c(c1)OCO2 (configuration not stated)	1.2
129	CC(=O)N1c2ccc(S(=O)(=O)N3CCCCC3)cc2CC1C (configuration not stated)	-1.1
